CXCR6 block – inhibitors of human CXCR6 receptor. O00574. CHO-K1 PathHunter CXCR6 beta-arrestin, luminescence. inhibition, % at 20 µM. 360,000 compounds, 0.36% hits; in the data active = inhibition above about 34%, passing the limit was not always enough;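 also: antagonist mode with CXCL16 agonist at 10 nM final; 0% = 10 nM CXCL16 with DMSO and 100% = unstimulated wells without agonist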
Target sequence (O00574 whole entry, looked up): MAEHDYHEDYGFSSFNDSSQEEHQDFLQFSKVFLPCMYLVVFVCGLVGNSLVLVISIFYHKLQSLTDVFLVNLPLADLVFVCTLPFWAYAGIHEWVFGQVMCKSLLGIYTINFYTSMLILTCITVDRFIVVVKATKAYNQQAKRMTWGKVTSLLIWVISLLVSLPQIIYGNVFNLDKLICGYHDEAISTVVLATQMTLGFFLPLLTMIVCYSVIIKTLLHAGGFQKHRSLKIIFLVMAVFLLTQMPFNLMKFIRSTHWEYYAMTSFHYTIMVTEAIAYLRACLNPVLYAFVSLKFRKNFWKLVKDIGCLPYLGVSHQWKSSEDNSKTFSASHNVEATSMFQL
Gli-Sufu block – antagonists of Gli-Sufu signaling. Sufu-KO-LIGHT fibroblasts, Gli luciferase reporter luminescence. inhibition, % at 5 µM. 340,000 compounds, 0.74% hits;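 active = inhibition above about 55%, limit read from the data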;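 also: 0% = DMSO-treated cells and 100% = wells with medium but no cells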
EBI2 antag – blocks human EBI2 receptor beta-arrestin signaling; EBI2 beta-arrestin recruitment, luminescence, 7a,25-OHC stimulated; inhibition, % at 5 µM; 360,000 compounds, 0.81% hits; in the data active = inhibition above about 38%;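 also: enzyme fragment complementation signal reports receptor beta-arrestin coupling in cells; 0% = agonist plus DMSO wells and 100% = wells without agonist; some results beyond the cut were filed as inactive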
Target sequence (P32249 whole entry, looked up, the tested form may be a part): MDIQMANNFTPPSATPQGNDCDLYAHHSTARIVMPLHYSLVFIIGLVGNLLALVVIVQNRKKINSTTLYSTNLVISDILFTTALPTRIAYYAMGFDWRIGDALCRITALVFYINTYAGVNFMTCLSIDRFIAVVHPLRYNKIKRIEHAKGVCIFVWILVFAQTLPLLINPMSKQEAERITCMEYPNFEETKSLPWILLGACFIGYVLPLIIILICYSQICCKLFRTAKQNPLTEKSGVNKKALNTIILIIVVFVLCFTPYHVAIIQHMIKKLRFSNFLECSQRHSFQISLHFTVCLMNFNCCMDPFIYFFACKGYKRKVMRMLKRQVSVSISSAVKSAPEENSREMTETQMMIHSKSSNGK
UPR CHOP act – apoptotic UPR (CHOP) activation; CHO-CHOP luciferase reporter, luminescence; percent of tunicamycin response over DMSO baseline; activation, % at 10 µM; 330,000 compounds, 0.34% hits; AID 449763;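 active = at 10 µM dose, activation of 40% or more, normalized to positive control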;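 also: 100% = tunicamycin at 10 µg/mL and 0% = DMSO alone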
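Test system: CHO-CHOP cells, stable luciferase reporter of PERK-eIF2a-CHOP signalling | Quantity: 500 CHO-CHOP cells per well | Buffer or medium: F12 plus 10% serum | Compound dosing: 10 µM single point, 0.5% DMSO | Schedule: 6 h compound treatment, 37 °C | Signal: Luciferase luminescence | Control set: Tunicamycin high control, DMSO low control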
XBP1 UPR activ – adaptive UPR (XBP1) activation; CHO-XBP1 luciferase reporter, IRE1-XBP1 UPR activation, luminescence; percent of tunicamycin response, DMSO as zero; activation, % at 20 µM; 330,000 compounds, 0.33% hits;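 active = versus positive control, 20 µM dose yields 30% or more activation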;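 also: 100% = tunicamycin at 10 µg/mL and 0% = DMSO only wells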
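Signal: luciferase luminescence; Assay system: CHO-XBP1 luciferase reporter cells; Amount: one thousand reporter cells per well; Dosing: 20 µM single concentration, DMSO 1%; Benchmarks: high control tunicamycin 10 µg/mL final, low control DMSO vehicle only; Schedule: 6 h compound exposure at 37 °C, 5% CO2; Evaluation: percent activation relative to tunicamycin reference.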
CCR6 antag – blocks CCL20-driven beta-arrestin recruitment at human CCR6; CHO-K1 CCR6 PathHunter beta-arrestin, luminescence, CCL20-stimulated; AID 493098; P51684; inhibition, % at 20 µM; 340,000 compounds, 0.49% hits;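 active = compounds whose inhibition of the agonist-driven luminescence signal at 20 µM reaches about 50%, limit read from the data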;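 also: cells stimulated with CCL20 at 14 nM final; plate controls were DMSO with CCL20 for no effect and DMSO without agonist for full effect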
* hit, by the source's call; & = joins results of further samples. An excerpt; rates above refer to the full screens.

For CCOC(=O)C1=NN(c2ccccc2)C(=O)C1 the results were CXCR6 block 0, Gli-Sufu block 0, EBI2 antag -2, UPR CHOP act -1.4, XBP1 UPR activ -2 and CCR6 antag 5.
For CCOC(=O)c1cc(S(=O)(=O)NCC2CCN(Cc3cccc(C)c3)CC2)cn1C the results were CXCR6 block 4, Gli-Sufu block 29, EBI2 antag -8, UPR CHOP act -1.7, XBP1 UPR activ -4 and CCR6 antag 23.
CCCCc1nc(Cl)c(CO)n1Cc1ccc(-c2ccccc2-c2nn[nH]n2)cc1 was read as CXCR6 block 4, Gli-Sufu block -6, EBI2 antag -3, UPR CHOP act -3.2, XBP1 UPR activ -6 and CCR6 antag -1.
Clc1cc(Cl)c(Cl)c(Cl)c1Cl was read as CXCR6 block -2, Gli-Sufu block 3, EBI2 antag -8, UPR CHOP act -2.5, XBP1 UPR activ 1 and CCR6 antag 6.
`COc1c(Cl)cc(C(=O)Nc2ccccc2C(=O)O)cc1Cl` gave CXCR6 block 0, Gli-Sufu block -3, EBI2 antag 7, UPR CHOP act 1.0, XBP1 UPR activ 0 and CCR6 antag -1.
For O=C(O)c1ccccc1Nc1ccccc1 the results were CXCR6 block 8, Gli-Sufu block -9, EBI2 antag -2, UPR CHOP act -0.6, XBP1 UPR activ -2 and CCR6 antag 7.
O=C1O[C@H]([C@@H](O)CO)C(O)=C1O was read as CXCR6 block 5, Gli-Sufu block 22, EBI2 antag 5, UPR CHOP act -1.9, XBP1 UPR activ -4 and CCR6 antag 38.
`O=C1O[C@@H]([C@H](O)CO)C(O)=C1O` gave CXCR6 block 10, Gli-Sufu block 2, EBI2 antag 4, UPR CHOP act 0.6, XBP1 UPR activ -4 and CCR6 antag 44.
CC(C)NC[C@@H](O)COc1ccc(CC(N)=O)cc1 was read as CXCR6 block 1, Gli-Sufu block -2, EBI2 antag 0, UPR CHOP act 0.0, XBP1 UPR activ -8 and CCR6 antag 2.
For CNCC[C@H](Oc1ccc(C(F)(F)F)cc1)c1ccccc1 the results were CXCR6 block 0, Gli-Sufu block -1, UPR CHOP act 0.2, XBP1 UPR activ -7 and CCR6 antag 37.
Screening Fc1ccc(C2CCNCC2COc2ccc3c(c2)OCO3)cc1 (stereo not drawn) returned CXCR6 block -6, Gli-Sufu block 11, EBI2 antag -2, UPR CHOP act 2.0, XBP1 UPR activ 3 and CCR6 antag 5.
Screening COc1ccc(-c2cc3ncccc3cn2)cc1 returned CXCR6 block -5, Gli-Sufu block -119, EBI2 antag -7, UPR CHOP act 3.3, XBP1 UPR activ -2 and CCR6 antag 0.
Screening Cc1ccc(-c2cn3cc([N+](=O)[O-])ccc3n2)cc1 returned CXCR6 block -10, Gli-Sufu block -48, EBI2 antag -4, UPR CHOP act -0.9, XBP1 UPR activ -6 and CCR6 antag -4.
Screening NC(=O)N1c2ccccc2CC(=O)c2ccccc21 returned CXCR6 block -4, Gli-Sufu block 5, EBI2 antag 5, UPR CHOP act -2.6, XBP1 UPR activ -4 and CCR6 antag -1.
For CC(C)CCC(C)NC(=O)c1ccc2nccnc2c1 (stereo not drawn) the results were CXCR6 block 1, Gli-Sufu block -40, EBI2 antag -3, UPR CHOP act 2.1, XBP1 UPR activ 1 and CCR6 antag 8.
CC(C)C(=O)c1c(C(C)C)nn2ccccc12 was read as CXCR6 block 0, Gli-Sufu block -8, EBI2 antag 8, UPR CHOP act -2.3, XBP1 UPR activ 0 and CCR6 antag 10.
CCc1ncc(C)[nH]1 was read as Gli-Sufu block -16, UPR CHOP act 2.6, XBP1 UPR activ 0 and CCR6 antag -2.
`C=CCOC(=O)CCCCCCCC` gave CXCR6 block 6, Gli-Sufu block 21, EBI2 antag 3, UPR CHOP act -0.9, XBP1 UPR activ 0 and CCR6 antag -14.
O=C1CCC(=O)O1 was read as CXCR6 block 4, Gli-Sufu block 1, EBI2 antag 1, UPR CHOP act 1.4, XBP1 UPR activ -1 and CCR6 antag -3.
`CN(C/C=C/C#CC(C)(C)C)Cc1cccc2ccccc12` gave CXCR6 block 3, Gli-Sufu block 2, EBI2 antag 13, UPR CHOP act -0.2, XBP1 UPR activ -6 and CCR6 antag 33.
For CC(=O)c1ccc2c(c1)N(CCCN1CCC(CCO)CC1)c1ccccc1S2 the results were CXCR6 block -2, Gli-Sufu block 6, EBI2 antag -4, UPR CHOP act -1.2, XBP1 UPR activ -3 and CCR6 antag 8.
For O=C(/C=C/Nc1cccc([N+](=O)[O-])c1)c1ccco1 the results were CXCR6 block 1, Gli-Sufu block -14, EBI2 antag -6, UPR CHOP act 5.1, XBP1 UPR activ 1 and CCR6 antag 12.
Screening O=C(Nc1ccccc1)c1nc2ccccc2s1 returned CXCR6 block -4, Gli-Sufu block -100, EBI2 antag 1, UPR CHOP act 2.6, XBP1 UPR activ 1 and CCR6 antag 9.
`N[C@H]1C(O)O[C@H](CO)[C@@H](O)[C@@H]1O` (stereo partly drawn) gave CXCR6 block -5, Gli-Sufu block -2, EBI2 antag -1, UPR CHOP act 1.9, XBP1 UPR activ -6 and CCR6 antag 2.
`Cc1nn(CC(=O)Nc2ccccc2C(F)(F)F)c(=O)c2cccn12` gave CXCR6 block -6, Gli-Sufu block 2, EBI2 antag -2, UPR CHOP act 0.4, XBP1 UPR activ -1 and CCR6 antag -3.
For NCCCC[C@H](N[C@@H](CCc1ccccc1)C(=O)O)C(=O)N1CCC[C@H]1C(=O)O the results were CXCR6 block -2&-5, Gli-Sufu block -41&3, EBI2 antag 4&-3, UPR CHOP act -0.4&1.3, XBP1 UPR activ -5&-6 and CCR6 antag 7&1.
OC[C@@H](O)[C@@H](O)CO was read as CXCR6 block 7, Gli-Sufu block 3, EBI2 antag -2, UPR CHOP act -1.1, XBP1 UPR activ 0 and CCR6 antag -1.
Screening CCOc1ccc2ccccc2c1C(=O)N[C@@H]1C(=O)N2[C@@H]1SC(C)(C)[C@@H]2C(=O)O returned CXCR6 block 0&-1, Gli-Sufu block 1&-3, EBI2 antag -1&0, UPR CHOP act 2.2&-0.2, XBP1 UPR activ -6&-10 and CCR6 antag 7&0.
Screening CC(=O)NCCNC(=O)c1ccc(CSc2nc3ccccc3s2)cc1 returned CXCR6 block -2, EBI2 antag 3, UPR CHOP act -5.1 and XBP1 UPR activ -9.
For c1ccc2sc(SN3CCOCC3)nc2c1 the results were CXCR6 block -2, Gli-Sufu block -6, EBI2 antag -15, UPR CHOP act 0.8, XBP1 UPR activ -3 and CCR6 antag -18.
`CC[C@H](C)[C@H]1O[C@]2(CC[C@@H]1C)C[C@@H]1C[C@@H](CC=C(C)[C@@H](O[C@H]3C[C@H](OC)[C@@H](O[C@H]4C[C@H](OC)[C@@H](O)[C@H](C)O4)[C@H](C)O3)[C@@H](C)C=CC=C3CO[C@@H]4[C@H](O)C(C)=C[C@@H](C(=O)O1)[C@]34O)O2` gave CXCR6 block -9, Gli-Sufu block 4, EBI2 antag 17, UPR CHOP act 39, XBP1 UPR activ 64* and CCR6 antag -21.
Screening Nc1ccncc1N returned CXCR6 block -2, Gli-Sufu block -15, EBI2 antag 0, UPR CHOP act -2.0, XBP1 UPR activ -6 and CCR6 antag -5.
`Cc1ccnc(NS(=O)(=O)c2ccc(N)cc2)n1` gave CXCR6 block -6, Gli-Sufu block -1, EBI2 antag -3, UPR CHOP act -1.1, XBP1 UPR activ -6 and CCR6 antag -4.
Screening Nc1ncnc2c1ncn2[C@@H]1O[C@H](COP(=O)(O)O)[C@@H](O)[C@H]1O returned CXCR6 block 4, Gli-Sufu block -6, EBI2 antag -8, UPR CHOP act 0.1, XBP1 UPR activ -5 and CCR6 antag -10.
Screening CCN1CCN(C(=O)N[C@@H](C(=O)N[C@@H]2C(=O)N3[C@@H]2SC(C)(C)[C@@H]3C(=O)O)c2ccccc2)C(=O)C1=O returned UPR CHOP act -3.6 and XBP1 UPR activ -6.
For CCOC(=O)c1c(-c2cccc(C)c2)csc1NC(=O)c1c(-c2ccccc2)noc1C the results were CXCR6 block 1, Gli-Sufu block -6, EBI2 antag 3, UPR CHOP act -1.2, XBP1 UPR activ -1 and CCR6 antag 14.
Screening O=C(/C=C/c1ccc(Cl)c([N+](=O)[O-])c1)Nc1cccc(NC(=O)c2ccco2)c1 returned CXCR6 block -5, Gli-Sufu block -1, EBI2 antag -23, UPR CHOP act 4.0, XBP1 UPR activ 0 and CCR6 antag 11.
Screening O=C1[C@@H](c2ccccc2)[C@@H](c2ccccc2)N1c1cccnc1 returned CXCR6 block 0, Gli-Sufu block 8, EBI2 antag 10, UPR CHOP act 17, XBP1 UPR activ 1 and CCR6 antag 21.
CC1=C(/C=C/C(C)=C/C=C/C(C)=C\C(=O)O)C(C)(C)CCC1 was read as CXCR6 block -3, Gli-Sufu block 17, EBI2 antag -6, UPR CHOP act 4.3, XBP1 UPR activ -6 and CCR6 antag 14.
Screening O=C(CSCc1ccccc1)N1CCc2ccccc21 returned CXCR6 block 1, Gli-Sufu block -88, EBI2 antag 4, UPR CHOP act 3.9, XBP1 UPR activ 1 and CCR6 antag 16.
CC1(C)S[C@@H]2[C@H](NC(=O)Cc3ccccc3)C(=O)N2[C@H]1C(=O)O was read as CXCR6 block -6&2, Gli-Sufu block -15&6, EBI2 antag 1&4, UPR CHOP act 1.3, XBP1 UPR activ -5 and CCR6 antag -11&2.
For O=C(c1cc(COc2cccc(C(F)(F)F)c2)on1)N1CCC(c2ccccc2)CC1 the results were CXCR6 block 9, Gli-Sufu block 6, EBI2 antag 4, UPR CHOP act 2.4, XBP1 UPR activ -3 and CCR6 antag 25.
`COc1ccccc1[N+](=O)[O-]` gave CXCR6 block -2, Gli-Sufu block -4, EBI2 antag -3, UPR CHOP act 2.7, XBP1 UPR activ 0 and CCR6 antag -2.
Screening OC[C@@H](O)[C@@H](O[C@@H]1O[C@H](CO)[C@H](O)[C@H](O)[C@H]1O)[C@H](O)[C@@H](O)CO returned CXCR6 block 7, Gli-Sufu block 2, EBI2 antag -3, UPR CHOP act -0.9, XBP1 UPR activ -7 and CCR6 antag -1.
Screening Cc1cccc(NC(=O)c2nc(S(=O)(=O)Cc3ccccc3)ncc2Cl)c1 returned CXCR6 block 65*, Gli-Sufu block 6, EBI2 antag 66*, UPR CHOP act -9.3, XBP1 UPR activ -12 and CCR6 antag 82*.
Screening CC/C(=C(\c1ccccc1)c1ccc(OCCN(C)C)cc1)c1ccccc1 returned CXCR6 block -3&-3, Gli-Sufu block 4&-17, EBI2 antag 3&2, UPR CHOP act 2.6, XBP1 UPR activ -1 and CCR6 antag 15&-3.
`COc1cccc(OCc2cc(C(=O)N3CCNC(=O)C3Cc3ccccc3)no2)c1` (stereo not drawn) gave CXCR6 block -2, Gli-Sufu block -7, EBI2 antag 18, UPR CHOP act 8.7, XBP1 UPR activ -1 and CCR6 antag 1.
Nc1ccc(C(=O)NCC(=O)O)cc1 was read as CXCR6 block -2, Gli-Sufu block -9, EBI2 antag -5, UPR CHOP act -1.7, XBP1 UPR activ -1 and CCR6 antag -2.
COc1cccc2c1C(=O)c1c(O)c3c(c(O)c1C2=O)C[C@@](O)(C(=O)CO)C[C@@H]3O[C@H]1C[C@H](N)[C@@H](O)[C@H](C)O1 was read as CXCR6 block 18, Gli-Sufu block 68*, EBI2 antag 7, UPR CHOP act -0.7, XBP1 UPR activ -6 and CCR6 antag 30.
COc1c2ccoc2cc2oc(=O)ccc12 was read as CXCR6 block 0, Gli-Sufu block -9, EBI2 antag -1, UPR CHOP act 0.4, XBP1 UPR activ -2 and CCR6 antag -9.

Source: PubChem (Sanford-Burnham Center for Chemical Genomics)
